CtBP-E1A inh = CtBP/E1A binding inhibition; AlphaScreen GST-E1A/His-CtBP binding, 1536-well; hits give low values; control for the full effect not named in the record; activity change, % (no concentration beside the values); 340,000 compounds, 0.49% hits; AID 651724; in the data active means activity change below about -65%; inconclusive means about -30% to -65%; inactive means above about -30%; further: on the % scale 0 is the no-effect control and ±100 the full control effect
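Protein mix (5X: 125 nM each GST-E1A, His-CtBP) was incubated with pinned compound 2 h at 37 deg C in dark, in 50 mM Tris pH 8.0 buffer with 300 mM NaCl. Glutathione donor and nickel acceptor beads followed; AlphaScreen signal read after 1 h.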
gsp agonist = agonists of gsp mutant (McCune-Albright syndrome). Potency, µM (highest dose often 76.9 µM), for inactives: at the top dose activation (cAMP increase), usual class: activators. gsp mutant cells, cAMP HTRF, 30 min; control for the full effect not named in the record. 340,000 compounds, 0.13% hits; active = well fitted activation curve with a large enough effect; inconclusive = small, poorly fitted or top-dose-only effect, or another doubt; inactive = no such curve, though single readings can be large or run the other way; cell line not stated here;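 further: phosphodiesterase inhibitor Ro 20-1724 added with compounds to block cAMP breakdown; potency means the concentration at half of the fitted maximal effect; nearly all actives have a fitted effect of over 60% in size; about a fifth of the inactives were tested at one dose only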
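Cells stably selected in G418 were plated at 2000/well, grown 16-24 hr, then given compounds in DMSO with the PDE inhibitor […] (300 uM solution added) for 30 min at 37C; cAMP was read by HTRF.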
Six1-Eya2 inh = inhibitors of human Six1/Eya2 interaction; Q15475+O00167; AlphaScreen GST-Six1/His-Eya2 binding, biochemical; hits give low values; control for the full effect not named in the record; activity change, % (test concentration not listed); 360,000 compounds, 0.56% hits; AID 651725; in the data active = activity change below about -65%; inconclusive = about -30% to -65%; inactive = above about -30%; further: on the % scale 0 is the no-effect control and ±100 the full control effect
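Homogeneous AlphaScreen proximity assay pairing GST-Six1 with His-tagged Eya2 (added as 5X mix: 250 nM and 500 nM) in 50 mM Tris pH 8.0, 300 mM NaCl, 1 mM TCEP. Glutathione donor and nickel acceptor beads; 1 h, 37 °C, dark.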
D2 ag = human D2 receptor agonism in beta-arrestin assay; P14416; AID 624465; DiscoveRx PathHunter D2 beta-arrestin, luminescence, 90 min; 100% = 57 uM dopamine signal; activation, % (no concentration beside the values); 360,000 compounds, 0.084% hits; in the data active = activation above about 40%; inconclusive = about 15% to 40%; inactive = below about 15%; further: compound concentration not given in the record; the text of the record calls up to 30% inactive
Target sequence (P14416 whole entry, looked up): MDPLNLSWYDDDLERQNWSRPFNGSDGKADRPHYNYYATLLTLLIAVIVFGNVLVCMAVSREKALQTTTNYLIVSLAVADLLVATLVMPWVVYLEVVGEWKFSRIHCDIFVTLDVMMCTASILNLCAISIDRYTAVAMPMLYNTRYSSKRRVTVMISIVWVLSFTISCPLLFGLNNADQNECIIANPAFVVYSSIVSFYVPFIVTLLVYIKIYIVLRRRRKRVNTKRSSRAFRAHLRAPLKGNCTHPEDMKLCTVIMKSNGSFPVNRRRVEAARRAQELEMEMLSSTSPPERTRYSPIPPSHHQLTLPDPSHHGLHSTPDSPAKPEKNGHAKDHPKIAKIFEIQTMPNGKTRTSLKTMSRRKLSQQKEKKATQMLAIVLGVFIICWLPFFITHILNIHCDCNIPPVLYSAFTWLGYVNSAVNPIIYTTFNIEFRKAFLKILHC
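Agonist mode: compounds alone added to overnight-plated D2 PathHunter cells for 90 min at 37 C, with 57 uM final dopamine (EC100) defining full response. Beta-arrestin recruitment detected by chemiluminescent reagent, read after 1 h at ambient temperature.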
gsp antag = gsp mutant antagonism; 340,000 compounds, 0.4% hits; gsp-mutant cells, cAMP HTRF, 30 min; control for the full effect not named in the record; AID 624288; Potency, µM (titrated, usually from 76.9 µM), inactives show at the top dose activity change, negative = inhibition, hits mostly inhibitors; active = falling curve of any shape with a large fitted effect; inconclusive = falling curve, mostly with a smaller effect; inactive = flat or rising curve; cell line not stated here;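 further: intracellular cAMP measured with PDE inhibitor Ro 20-1724 present during compound exposure; potency means the concentration at half of the fitted maximal effect; on the % scale 0 is the no-effect control and ±100 the full control effect; nearly all actives have a fitted effect of over 65% in size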
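Measurement of cellular cAMP by homogeneous time-resolved fluorescence following a 30 min compound exposure at 37C. The PDE inhibitor […] was present throughout; the assay buffer was DPBS with 0.05% BSA and 0.005% Tween 20.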
D2 potentiator = human D2 receptor positive allosteric modulation. P14416. DiscoveRx D2 beta-arrestin cells, luminescence, 90 min; 100% = 57 uM dopamine signal. potentiation, % (no concentration beside the values). 360,000 compounds, 0.23% hits. AID 624464; active = potentiation of 50% or more; inconclusive = 30% to 50%; inactive = 30% or less;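 further: compound concentration not given in the record; tested on top of an EC20 dose of dopamine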
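PathHunter beta-arrestin assay in DiscoveRx D2 cells. Compounds were added with an EC20 of dopamine (50 nM final) for 90 min at 37 deg C. Luminescence was read 1 h after detection reagent, with 57 uM dopamine as the EC100 control.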
* marks the source's active call; other numbers are inactive results; ? = inconclusive; · = no result given; [ ] = remark or other dose.

Values run as follows: gsp agonist | gsp antag | CtBP-E1A inh | D2 potentiator | D2 ag | Six1-Eya2 inh
CC1=NN(C(=O)c2csc(C)c2)C(O)(C(F)(F)F)C1 (stereo not given)
→ 11%[15.4 µM] | -1% | -7 | -3 | -6.7 | 4
CC(O)(c1ccc(F)c(F)c1)c1nc(-c2ccc(F)c(Cl)c2)cs1 (stereo not given)
→ · | · | 19 | -3 | 6.8 | 10
CC(C)Cc1ccc(CN2C(C)C(=O)N(Cc3cn(Cc4ccco4)nn3)CCS2(=O)=O)cc1 (stereo not given)
→ · | · | 2 | -1 | -1.5 | -21
COc1ccc(NS(=O)(=O)c2cc(NC(=O)c3ccc(=O)[nH]c3)ccc2C)cc1
→ -17% | 1% | · | -11 | -4.3 | ?
O=c1c2ccccc2ncn1Cc1ccc(Cl)cc1
→ -11% | -6% | 9 | -17 | 2.8 | 6
CC1=NN(c2ccccc2)C(=O)C1(C)[N+](=O)[O-] (stereo not given)
→ 4% | -5% | -3 | -3 | -7.0 | 11
CCCc1c(C)nn(C(=O)/C(C#N)=N/Nc2ccccc2[N+](=O)[O-])c1C
→ ? | 3% | -5 | -6 | 1.0 | -9
COc1ccccc1NC(=O)COC(=O)c1cc2ccccc2cc1O
→ -29% | 6% | 4 | 0 | -2.5 | 2
O=C1C=C(NCc2ccccc2)C2(CCCCC2)O1
→ 15% | 1% | 4 | 10 | 4.2 | 3
COc1ccc(-c2oc(=O)c3cc(OC)c(OC)cc3c2/C=C/c2ccc(OC(C)=O)cc2)cc1
→ ? | -4% | 26 | -2 | 0.8 | 16
COc1cc(CCC(O)CC(=O)CCc2ccccc2)ccc1O (stereo not given)
→ · | 5% | 0 | -13 | -2.1 | -2
CC1(C)C=C(c2ccc(C(=O)O)s2)CC(C)(C)N1
→ ? | -10% | 5 | -4 | -1.7 | 2
C[C@@H](CN=[N+]=[N-])CN1CC[C@H](C(C)(C)C)CCC1=O
→ · | 9% | 6 | -5 | -1.6 | 4
Cc1ccc(O)c(C(=O)c2cnc3onc(-c4ccc(F)cc4)c3c2)c1
→ -55%[inhibitor] | 4% | -23 | 30 | 6.5 | -6
C#CCOCCOCCOCCNc1nc(N2CCN(C(=O)Cn3cc(CC(C)O)nn3)CC2)nc(N2CCN(C(=O)[C@H]([C@@H](C)O)n3cc(CCCCN)nn3)CC2)n1 (stereo not given in full)
→ · | 6% | 3 | -8 | -2.4 | 2
Cc1ncc([N+](=O)[O-])n1CC(=O)Nc1ccc(Br)cc1
→ -11% | -7% | 5 | -19 | -4.3 | 16
Cn1cccc1Cc1nnc(SCC(=O)N2CCc3ccccc32)n1-c1ccc(F)cc1
→ -54%[inhibitor] | -3% | -10 | -1 | -0.6 | -24
CN(C)N1C(N)=C(C#N)C(c2ccc3c(c2)OCO3)C2=C1CC(C)(C)CC2=O (stereo not given)
→ 17%[15.4 µM] | -32% | 2 | -4 | 1.6 | 1
O=C1CC(c2cccs2)c2ccc3ccccc3c2N1 (stereo not given)
→ -4% | -14% | -2 | -5 | -3.0 | -7
Cc1c(N)cccc1N
→ · | -3% | -3 | 1 | 4.0 | -3
O=C(O)c1ccoc1CN1CCCCC1
→ -9% | 8% | 3 | 17 | -1.7 | -2
Cc1cc(S(=O)(=O)Nc2ccc(C(=O)NCc3cccnc3)cc2)ccc1F
→ 1% | -6% | -3 | 11 | -6.3 | 5
COc1ccc(C2(c3ccc(O)cc3O)CC(c3ccccc3Cl)NC(=S)N2)cc1 (stereo not given)
→ 21%[15.4 µM] | -3% | -13 | -1 | -6.2 | -14
Cc1cc(C)cc(N2CCCn3c2nc2c3c(=O)n(CC(=O)OCc3ccccc3)c(=O)n2C)c1
→ -35%[inhibitor] | -6% | 4 | -2 | -2.4 | -2
Cc1ccccc1NC(=O)CSc1nnc(NC(=O)C2CC2)s1
→ -1%[15.4 µM] | 1% | 2 | -1 | -0.1 | -2
S=c1[nH]nc(Cc2ccc(Cl)cc2)o1
→ -30%[15.4 µM] | -13% | -3 | -2 | 1.1 | -5
CC1CCN(c2ccc(C(=O)O)cc2)CC1
→ -25% | -16% | -1 | -3 | -0.4 | 2
Cc1ccc(Cl)cc1N1CCN(C(=O)c2ccc(CS(=O)Cc3ccc(Cl)cc3)o2)CC1 (stereo not given)
→ -30%[inhibitor] | ? | -6 | 5 | 2.7 | -12
CSc1ccc(-c2nnn(CC(=O)NCc3ccccc3)n2)cc1
→ 19% | 5% | 3 | 0 | -11 | 6
Cc1ccc(OCCCC(=O)Nc2cc(Cl)ccc2-n2cncn2)cc1
→ -2% | 2% | 6 | -3 | 0.3 | -2

Of the compounds above, 3 have a COOH group:
Values run as follows: gsp agonist | gsp antag | CtBP-E1A inh | D2 potentiator | D2 ag | Six1-Eya2 inh
CC1(C)C=C(c2ccc(C(=O)O)s2)CC(C)(C)N1
→ ? | -10% | 5 | -4 | -1.7 | 2
O=C(O)c1ccoc1CN1CCCCC1
→ -9% | 8% | 3 | 17 | -1.7 | -2
CC1CCN(c2ccc(C(=O)O)cc2)CC1
→ -25% | -16% | -1 | -3 | -0.4 | 2

More results follow:
Values run as follows: gsp agonist | gsp antag | CtBP-E1A inh | D2 potentiator | D2 ag | Six1-Eya2 inh
Cc1cc(C)c(OCC(=O)OCC(=O)N2CCc3ccccc3C2)c(C)c1
→ 34%[15.4 µM] | 5% | 8 | -24 | 0.3 | 9
Nc1[nH]c(=O)nc(Nc2ccccc2)c1N=O
→ -1% | ? | -66* | 4 | 3.3 | ?
COCOCCn1cc(CN2CCS(=O)(=O)N(Cc3ccc(-c4ccc(OC)c(OC)c4)cc3)C(C)C2=O)nn1 (stereo not given)
→ 31% | · | 2 | 1 | 1.1 | -4
C#CCSc1nnnn1-c1ccc(OCC)cc1
→ -11%[15.4 µM] | 14% | 1 | -6 | -1.2 | -11
COc1ccc(S(=O)(=O)N(C)CC(=O)NCCc2ccccc2)cc1OC
→ -35%[inhibitor] | 7% | 3 | 7 | -3.3 | 4
CCN(C(=O)COC(=O)CNS(=O)(=O)c1ccc2ccccc2c1)C1CCCCC1
→ -17%[15.4 µM] | -8% | -1 | -67 | -4.0 | 7
COc1ccc(NS(=O)(=O)c2cccc(C(=O)N3CCCCCC3)c2)cc1
→ -2% | -11% | -3 | 11 | -7.5 | 6
CC(Cl)C(=O)c1c(N)n(C)c(=O)n(C)c1=O (stereo not given)
→ 0% | 3% | 5 | -3 | -3.1 | 2
COc1ccccc1S(=O)(=O)N1CCN(S(=O)(=O)c2ccccc2C#N)CC1
→ -26%[15.4 µM] | -15% | 17 | -12 | 0.1 | 4
COc1ccccc1CNCc1cc(OC)c(OC)cc1OC
→ 28% | -5% | 1 | 1 | 1.6 | 0
CC(C)(C)c1cc(CCC(=O)NCc2cccnc2)cc(C(C)(C)C)c1O
→ 7% | -8% | 0 | -16 | -4.6 | -3
COc1cccc(NS(=O)(=O)NC(=O)c2cn(C)c3ccccc23)c1
→ 5% | -1% | 2 | -7 | 0.7 | 1
COc1ccc(S(=O)(=O)N(C)C)cc1NC(=O)CCCSc1ccccc1
→ -33%[15.4 µM] | -17% | -8 | -19 | -4.5 | -17
Cc1c(C(C)C)c(=O)n(-c2ccc(S(=O)(=O)N3CCOCC3)cc2)n1C
→ 8%[15.4 µM] | -3% | · | 0 | 11 | -6
COc1cccc(CN2CCC(n3nccc3NC(=O)CCCc3ccccc3)CC2)c1
→ 12% | -1% | 4 | -12 | 0.0 | -5
COc1ccc(C2C(C(=O)c3ccco3)=C(O)C(=O)N2CC2CCCO2)c(OC)c1 (stereo not given)
→ 0%[15.4 µM] | -1% | -2 | -9 | -5.7 | 14
CN(C)S(=O)(=O)c1cccc(N=C2SCCN2Cc2ccccc2)c1
→ 9%[15.4 µM] | -20% | 6 | 1 | 7.7 | 2
CCOc1ccc(NC(=O)CN(C)C(=O)c2ccc(COc3ccccc3)cc2)cc1OCC
→ 5% | 0% | -10 | -11 | -1.4 | -10
Cn1c(=O)[nH]c(=O)c2c1nc(N1CCCCC1)n2C/C=N/Nc1ccc(C(=O)O)cc1
→ 26% | -3% | 4 | -11 | -2.8 | 4
COc1cc(-c2nnc(SCC(=O)Nc3cc(C)on3)n2C)cc(OC)c1O
→ -12% | 9% | -1 | 4 | -1.4 | -8
O=C(NCCCCc1ccccc1)c1cccc(NC(=O)C2CC2)c1
→ · | -4% | 3 | -5 | -0.7 | -2
O=S(=O)(c1ccc2ccccc2c1)N1CCc2ccccc21
→ -26% | -14% | · | 15 | -1.1 | 2
COc1ccc(-c2nnc(SCC(=O)Nc3ccc(C)cc3)n2C)cc1
→ -15% | -1% | 9 | -13 | 0.1 | 0
COc1ccc(CNC(=O)C2CCC(CNS(=O)(=O)c3cccc4cccnc34)CC2)cc1 (stereo not given)
→ -6% | -15% | · | -8 | -7.4 | 1
Cc1ccc(C(=O)COC(=O)CNC(=O)c2ccc(N3C(=O)c4ccccc4C3=O)cc2)cc1C
→ 9%[15.4 µM] | 7% | -7 | -8 | -1.7 | 9
COc1cccc(C(=O)Nc2ccc3[nH]ncc3c2)c1OC
→ -8%[15.4 µM] | -5% | 0 | -15 | -4.2 | -27
COc1ccc(C(CNC(=O)COc2ccccc2OC)N(C)C)cc1OC (stereo not given)
→ ? | 5% | -1 | -14 | 0.8 | 5
O=C(COc1cc(Cl)c(Cl)cc1Cl)Nc1cccc(O)c1
→ -21% | -6% | · | 9 | -8.2 | 0
CC(NS(=O)(=O)c1ccc(Br)cc1)C(=O)NCc1ccc2c(c1)OCO2 (stereo not given)
→ 26%[15.4 µM] | -10% | · | -4 | 6.4 | 2
COCCCN1C(=O)C(=O)/C(=C(/O)c2ccc(OC(C)C)cc2)C1c1cccnc1 (stereo not given)
→ 20% | 13% | -2 | 7 | -4.6 | 5

Part of the list above, as labelled records:
COc1ccc(S(=O)(=O)N(C)CC(=O)NCCc2ccccc2)cc1OC
  gsp agonist: -35%[inhibitor]
  gsp antag: 7%
  CtBP-E1A inh: 3
  D2 potentiator: 7
  D2 ag: -3.3
  Six1-Eya2 inh: 4
CCN(C(=O)COC(=O)CNS(=O)(=O)c1ccc2ccccc2c1)C1CCCCC1
  gsp agonist: -17%[15.4 µM]
  gsp antag: -8%
  CtBP-E1A inh: -1
  D2 potentiator: -67
  D2 ag: -4.0
  Six1-Eya2 inh: 7

Carrying on:
Values run as follows: gsp agonist | gsp antag | CtBP-E1A inh | D2 potentiator | D2 ag | Six1-Eya2 inh
Cn1nc(-c2ccccc2)c(C(=O)Nc2ccc(C(F)(F)F)cc2)c1Cl
→ 6% | 3% | 7 | -9 | 0.7 | 2
Cc1nn(-c2ccccc2)c(N2CCCC2)c1/C=N/NC(=S)Nc1ccc(F)cc1
→ -11%[15.4 µM] | -19% | -6 | -2 | -6.4 | -13
O=C(CN1CCC(C(=O)c2ccc(F)cc2)CC1)NCc1ccccc1F
→ -4%[15.4 µM] | -13% | 0 | -16 | -13 | -20
NC(=O)C1CCN(c2oc(/C=C/c3ccc(F)cc3)nc2S(=O)(=O)c2ccccc2)CC1
→ 2% | -11% | -4 | -1 | 3.5 | 3
O=C(Cc1ccccc1)Nc1nc2ccccc2s1
→ 0% | 0% | 8 | -12 | -0.8 | 2
